# D2 PAM: Beta-Arrestin HTS for Positive Allosteric Modulators of the Human D2 Dopamine Receptor: Potentiators; 360,000 tested, 0.23% active; D(2) dopamine receptor (Homo sapiens), P14416; potentiation, % (concentration not given with the values); DiscoveRx D2 beta-arrestin cells, luminescence, 90 min; 100% = 57 uM dopamine signal; active = potentiation of 50% or more; inconclusive = 30% to 50%; inactive = 30% or less;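 also: compound concentration not given in the record; tested on top of an EC20 dose of dopamine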
#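 PathHunter beta-arrestin assay in DiscoveRx D2 cells. Compounds were added with an EC20 of dopamine (50 nM final) for 90 min at 37 deg C. Luminescence was read 1 h after detection reagent, with 57 uM dopamine as the EC100 control.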
# Six1-Eya2 inh: qHTS Assay for Inhibitors of the Six1/Eya2 Interaction; activity change, % (concentration not given with the values); AlphaScreen GST-Six1/His-Eya2 binding, biochemical; stronger effect = lower value; control for the full effect not named in the record; Homeobox protein SIX1 (Homo sapiens) + Protein phosphatase EYA2 (Homo sapiens), …; 360,000 tested, 0.56% active; in the data active = activity change below about -65%; inconclusive = about -30% to -65%; inactive = above about -30%; also: % is scaled to controls: 0 for no effect and ±100 for the full control effect
# Target sequence (O00167 whole entry, looked up): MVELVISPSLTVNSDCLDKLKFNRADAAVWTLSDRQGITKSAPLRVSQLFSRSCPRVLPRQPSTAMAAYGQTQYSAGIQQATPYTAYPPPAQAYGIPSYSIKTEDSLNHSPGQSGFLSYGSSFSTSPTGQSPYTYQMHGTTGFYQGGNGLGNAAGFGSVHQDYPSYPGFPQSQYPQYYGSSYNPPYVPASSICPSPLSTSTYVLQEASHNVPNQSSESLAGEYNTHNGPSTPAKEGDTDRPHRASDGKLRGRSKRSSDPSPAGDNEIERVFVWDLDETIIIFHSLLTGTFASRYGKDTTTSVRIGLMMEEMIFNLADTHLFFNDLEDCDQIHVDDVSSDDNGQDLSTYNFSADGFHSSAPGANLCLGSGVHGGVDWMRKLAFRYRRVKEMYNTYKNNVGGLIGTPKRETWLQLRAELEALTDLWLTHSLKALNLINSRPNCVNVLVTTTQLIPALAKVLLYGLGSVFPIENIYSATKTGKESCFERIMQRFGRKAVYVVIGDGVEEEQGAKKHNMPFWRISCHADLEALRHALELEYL
# Target sequence (Q15475 whole entry, looked up): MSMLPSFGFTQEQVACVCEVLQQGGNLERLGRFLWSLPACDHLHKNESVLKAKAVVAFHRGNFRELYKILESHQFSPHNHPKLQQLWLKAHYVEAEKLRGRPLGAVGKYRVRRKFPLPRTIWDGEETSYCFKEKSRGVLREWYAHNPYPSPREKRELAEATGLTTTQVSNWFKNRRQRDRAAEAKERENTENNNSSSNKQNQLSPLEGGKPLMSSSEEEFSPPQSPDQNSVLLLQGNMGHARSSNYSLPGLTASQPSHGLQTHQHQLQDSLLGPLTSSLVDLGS
#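 AlphaScreen luminescence read after one hour at 37 °C in darkness. Pin-transferred compounds met GST-Six1 and His-Eya2 protein (5X stock 250 nM/500 nM) plus glutathione donor and Ni-chelate acceptor beads (5X, 50 ug/mL).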
# gsp antag: qHTS for Antagonists of gsp, the Etiologic Mutation Responsible for Fibrous Dysplasia/McCune-Albright Syndrome: qHTS | AID 624288, 2012 | 340,000 tested, 0.4% active | Potency, µM (top dose mostly 76.9 µM), without a hit: top-dose activity change, negative = inhibition, most hits filed as inhibitors | gsp-mutant cells, cAMP HTRF, 30 min; control for the full effect not named in the record; active = falling curve of any shape with a large fitted effect; inconclusive = falling curve, mostly with a smaller effect; inactive = flat or rising curve; cell line not stated here;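 also: intracellular cAMP measured with PDE inhibitor Ro 20-1724 present during compound exposure; potency is read from the fitted curve at half-maximal effect; % is scaled to controls: 0 for no effect and ±100 for the full control effect; nearly all actives have a fitted effect of over 65% in size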
#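 HTRF cAMP measurement after 30 min RT detection following 30 min, 37C compound treatment alongside […] (added as 300 uM solution) in G418-selected cells seeded at 2000/well and grown 16–24 h.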
# CtBP-E1A inh: qHTS Assay for Inhibitors of the CtBP/E1A Interaction; CtBP / adenovirus E1A interaction (AlphaScreen); AlphaScreen GST-E1A/His-CtBP binding, 1536-well; stronger effect = lower value; control for the full effect not named in the record; activity change, % (no concentration beside the values); 340,000 tested, 0.49% active; AID 651724, 2012; in the data active means activity change below about -65%; inconclusive means about -30% to -65%; inactive means above about -30%; also: % is scaled to controls: 0 for no effect and ±100 for the full control effect; compound concentration not given in the record
#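 Homogeneous bead-based format: GST-tagged E1A captured on glutathione donor beads, His-tagged CtBP on nickel acceptor beads; compounds precede bead addition by 2 h at 37 °C.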
# gsp agonist: qHTS for Agonist of gsp, the Etiologic Mutation Responsible for Fibrous Dysplasia/McCune-Albright Syndrome: qHTS; gsp mutant cells, cAMP HTRF, 30 min; control for the full effect not named in the record; Potency, µM (titrated, usually from 76.9 µM), without a hit: at the top dose activation (cAMP increase), actives largely listed as activators; 340,000 tested, 0.13% active; AID 624287, 2012; active = well fitted activation curve with a large enough effect; inconclusive = small, poorly fitted or top-dose-only effect, or another doubt; inactive = no such curve, though single readings can be large or run the other way; cell line not stated here;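 also: phosphodiesterase inhibitor Ro 20-1724 added with compounds to block cAMP breakdown; potency is read from the fitted curve at half-maximal effect; nearly all actives have a fitted effect of over 60% in size; about a fifth of the inactives were tested at one dose only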
#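 Cells in DMEM/10% FBS with G418 were pretreated with compounds in DMSO plus […] (300 uM stock) for 30 min at 37C. cAMP was measured by HTRF (cAMP-d2 plus anti-cAMP antibody-K) after 30 min at room temperature.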
# D2 agonist: Beta-Arrestin HTS for Positive Allosteric Modulators of the Human D2 Dopamine Receptor: Agonists; AID 624465, 2012; activation, % (test concentration not listed); 360,000 tested, 0.084% active; DiscoveRx PathHunter D2 beta-arrestin, luminescence, 90 min; 100% = 57 uM dopamine signal; in the data active = activation above about 40%; inconclusive = about 15% to 40%; inactive = below about 15%; also: compound concentration not given in the record; the text of the record calls up to 30% inactive
#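 DiscoveRx PathHunter D2 beta-arrestin cells (2,100/well) attached overnight, then compound-stimulated 90 min at 37 C in HBSS/10 mM HEPES/0.1% Tween-20 buffer; beta-galactosidase complementation read by luminescence after 1 h at ambient temperature. Dopamine 57 uM final (EC100) as control.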
# Active calls of the source: *; u = inconclusive; x = no result given; [ ] = remark or other dose.
SMILES,D2 PAM,Six1-Eya2 inh,gsp antag,CtBP-E1A inh,gsp agonist,D2 agonist
O=C(NC1CCCCC1)c1cc(C(=O)c2ccccc2Br)c[nH]1,-2,0,-1%,8,4%,-5.8
COc1ccc(CCn2c(C)cc3c(c2=O)C(c2ccncc2)C(C#N)=C(N)O3)cc1OC (stereo not drawn),3,5,-10%,8,-19%,2.9
O=C(CSc1ccc2nnc(CCNC(=O)c3ccccc3)n2n1)NC1CCCC1,3,3,11%,-8,20%,-0.4
COC(=O)C1CCN(Cc2cn(-c3ccccc3)nc2-c2ccc3c(c2)OCO3)CC1,-15,-20,3%,-5,4%[15.4 µM],-1.8
CC(=O)Nc1ccc(CN2CCCCCC2)cc1,-64,10,3%,x,-19%,-4.7
COc1ccc(-c2nc(CSCC(=O)NC3CC3)c(C)o2)cc1OC,-12,3,14%,1,u,-4.8
C[C@H](CO)N1C[C@H](C)[C@@H](CN(C)Cc2ccc(-c3ccccc3)cc2)Oc2c(NC(=O)Cc3ccccc3)cccc2C1=O,13,-15,u,-26,x,4.1
O=C1CS/C(=N/N=C/c2ccccc2)N1c1ccc(O)cc1,-1,5,-8%,6,8%[15.4 µM],0.9
O=S(=O)(c1ccccc1)N1CCN(Cc2cc3c(cc2Br)OCCO3)CC1,-12,-10,-10%,-6,-18%,-4.0
O=C(CCOc1cccc(Br)c1)NNC(=O)COc1ccc(F)cc1,-8,3,13%,2,-36%[inhibitor],0.0
CCOc1ccc(N2CC(=O)Nc3ccccc3NCC2=O)cc1,-18,-9,-3%,-13,-20%,-5.2
Cc1cccc(N(CC(=O)NCCSCc2ccccc2)S(C)(=O)=O)c1C,-3,11,-1%,3,10%[15.4 µM],0.9
Cc1ccc(C)c(N2CCN(C(=O)c3cc(S(=O)(=O)N4CCOCC4)cn3C)CC2)c1,-5,-5,-1%,-1,u,-5.4
Cc1ccnc2nc(C(=O)OCC(=O)c3c[nH]c4ccccc34)nn12,-2,11,7%,-19,-10%[15.4 µM],-1.9
CCCOc1ccc(/C=N/n2nnnc2N)cc1OC,0,-8,14%,-4,-73%[inhibitor],-0.3
COc1cc(C2C(C(C)=O)=C(O)C(=O)N2c2ccc(C)cc2)ccc1O (stereo not drawn),-2,-2,7%,1,4%,-0.4
Cc1ccc(C(=O)NCC(=O)NCC(=O)OCC(=O)c2cccs2)cc1,-2,-1,-1%,-1,-24%[15.4 µM],-5.9
Cc1ccc2nsnc2c1S(=O)(=O)NCc1ccncc1,5,8,-2%,7,-5%,1.3
Brc1ccc(-c2cnc(-c3cccs3)o2)cc1,7,5,-28%,13,-17%,-1.7
CN(C)CCNc1nc(-c2ccccc2)c2c(c1C#N)CC(C)(C)OC2,-9,13,-10%,-14,0%,-6.0
CCOc1ccc(NC(=S)N2CCC(c3ccc(C)cc3)C2)cc1 (stereo not drawn),-9,-7,2%,-10,31%,-2.0
Cc1ccc2nc(N(CCN(C)C)C(=O)/C=C/c3cccs3)sc2c1,-28,1,6%,-7,-41%[inhibitor],-2.5
CCn1c(/C=C/c2cc[n+](C)cc2)nc2ccccc21,-5,0,20%,0,u,-3.5
C[C@H](O)[C@@H]1C(=O)N2CCc3ccc(-c4cccc(F)c4)cc3[C@@H]2C[C@@H]1N(C)S(=O)(=O)c1ccccc1,13,-3,u,-3,x,5.6
Cc1ccc(C23CC4CC(CC(CC(=O)N5CCOCC5)(C4)C2)C3)cc1,-5,1,-6%,-8,22%,-0.6
Cc1ccc(C)c(C(O)c2ncc(-c3cccc4ccccc34)[nH]2)c1 (stereo not drawn),-12,-14,x,0,x,-8.5
CCOC(=O)C(=O)Nc1nccs1,-9,4,10%,x,-35%[inhibitor],-3.7
CC1(C)CC(=O)C2=C(C1)OC(N)=C(C#N)C2c1cccc(OC(=O)c2ccco2)c1 (stereo not drawn),-3,0,35%[activator],-2,-3%,1.5
CCCC(=O)Nc1ccc2c(c1)C(=O)NC2=O,-3,2,1%,3,u,-5.3
CC(=O)Nc1ccc2c(c1)-c1ccc(F)cc1C2=O,-18,-3,-9%,-9,u,-1.9
Cc1ccc(/C=N/NC(=O)c2ccccc2OCc2ccc(F)cc2)o1,-4,-7,-16%,-14,u,0.4
COc1ccc(CC(C(=O)Nc2ccc(OC)cc2)c2nn[nH]n2)cc1 (stereo not drawn),-2,0,6%,3,-1%,-0.9
COCC(=O)NC1CC2CCCC(C1)N2Cc1ccccc1 (stereo not drawn),-19,6,-3%,0,7%,-0.5
Oc1ccccc1-c1n[nH]c(-c2ccccc2O)n1,-15,25,u,3,-4%,0.6
COc1ccccc1C1CCN(Cc2ccccc2)CC1,-40,-4,3%,3,-17%,-8.4
CCOc1ccc(N2C(=O)c3ccc(C(=O)OCc4c(C)noc4C)cc3C2=O)cc1,-21,-1,3%,0,5%,-4.5
COc1ccc(NC(C)=O)cc1NC(=O)CSc1nc2ncccc2[nH]1,-4,3,8%,-1,u,0.8
COc1cccc(C(=O)NCCS(=O)(=O)NCc2ccco2)c1,-7,-3,-2%,6,-6%[15.4 µM],4.7
COc1ccc2oc(C(=O)OCC(=O)NC(C)c3ccccc3)c(C)c2c1 (stereo not drawn),-4,8,-17%,5,-10%,0.6
O=C(c1ccc(Cl)cc1)c1cc(-c2ccccn2)c(N2CCOCC2)s1,-9,44,-24%,37,1%,-2.4
Cc1cccnc1NCc1ccc(O)c2ncccc12,-9,-90*,-8%,-91*,0%,-3.9
Cc1cc(C)c(S(=O)(=O)N2CCCC(C(=O)NC3CC3)C2)c(C)c1 (stereo not drawn),-9,-6,7%,4,8%[15.4 µM],-6.9
O=C(CSc1ccccc1F)NCC(c1cccs1)N1CCOCC1 (stereo not drawn),-4,4,1%,-2,3%,-5.7
CNc1cc(-c2ccc(CC#N)cc2)ncn1,-4,-18,x,-7,x,-2.3
CC(=O)Nc1ccc(N2C(=O)CC(Sc3nc(C)cc(C)n3)C2=O)cc1 (stereo not drawn),-3,2,8%,-7,15%[15.4 µM],-2.0
CCOC(=O)c1cc2sc(C)cc2n1CCCN1C(=O)c2ccccc2C1=O,-4,-6,-21%,-4,-5%,-2.6
CSCCC(NC(=O)c1cccc(S(=O)(=O)N2CCOCC2)c1)C(=O)Nc1ccc(F)cc1 (stereo not drawn),-16,-12,5%,0,1%,4.4
CC[C@H]1CCCCc2ccccc2[C@@H](C(=O)C[C@@H](O)CC(C)=O)OC1=O,0,3,4%,3,x,-1.8
CN(C)Cc1c(-c2ccc(Cl)cc2)nc2ccc(Cl)cn12,-1,-4,-3%,-15,u,0.3
O=C(COC(=O)/C=C/c1ccc(C(F)(F)F)cc1)NCCC1=CCCCC1,-12,-5,10%,-6,24%,-1.7
CC1Cc2cc(S(=O)(=O)CCC(=O)NCc3ccco3)ccc2N1C(=O)C1CC1 (stereo not drawn),-15,3,3%,-5,-38%[inhibitor],-3.9
CC(=O)c1cccc(NS(=O)(=O)N(C)C)c1,-3,-15,10%,5,14%,-4.1
COc1cc2[nH]c(=S)n(Cc3ccccc3)c(=O)c2cc1OC,2,5,3%,-25,-8%[15.4 µM],-3.6
O=c1[nH]c(=S)[nH]c2sc3c(c12)CCCCCC3,-8,15,-4%,-1,6%[15.4 µM],-6.0
Cc1cccc(NC(=O)COC(=O)c2ccc(S(=O)(=O)N3CCCC3)cc2)c1,-1,-1,-1%,-1,-36%[inhibitor],-4.2
CC(C)c1ccc(OCC(=O)NN2C(=O)c3ccccc3C2=O)c(Br)c1,25,1,-6%,x,-1%,0.7
CCCNC(=O)CN1CCN(S(=O)(=O)c2ccc(Br)s2)CC1,-2,2,12%,-19,30%,-6.4
CC(=O)c1cccc(S(=O)(=O)NCCCN2CCOCC2)c1,-2,-2,25%,9,-14%,1.4
CC1=NNC(=O)C1CCC(=O)N/N=C/c1ccc(C)cc1 (stereo not drawn),1,-6,-9%,-1,-4%[15.4 µM],-2.6
COC(=O)c1ccc(CN2CCc3ccc(NC(=O)c4ccncc4)cc3C2)cc1,-37,1,-19%,0,-6%,3.0

# Sorted by value in CtBP-E1A inh (low to high): 3 from the list above.
mol | D2 PAM | Six1-Eya2 inh | CtBP-E1A inh | gsp agonist | D2 agonist
Cc1cccc(NC(=O)COC(=O)c2ccc(S(=O)(=O)N3CCCC3)cc2)c1 | -1 | -1 | -1 | -36%[inhibitor] | -4.2
COC(=O)c1ccc(CN2CCc3ccc(NC(=O)c4ccncc4)cc3C2)cc1 | -37 | 1 | 0 | -6% | 3.0
CC(=O)c1cccc(S(=O)(=O)NCCCN2CCOCC2)c1 | -2 | -2 | 9 | -14% | 1.4

# (continued)
SMILES,D2 PAM,Six1-Eya2 inh,gsp antag,CtBP-E1A inh,gsp agonist,D2 agonist
CCOc1cc(/C=N/Nc2nnc(C)n2N)ccc1OC(C)=O,12,-6,6%,-28,-14%[15.4 µM],1.4
CCn1cc(Cl)c(C(=O)N2N=C(c3ccc4ccccc4c3)CC2c2ccccc2O)n1 (stereo not drawn),-2,-19,-28%,-23,-6%,-0.4
Fc1ccc2nc(C3CCCCN3Cc3nc(CC4CC4)no3)[nH]c2c1 (stereo not drawn),0,17,-3%,-11,-9%[15.4 µM],0.9
CCN(C(=O)COC(=O)C1CCN(S(=O)(=O)c2cccs2)CC1)c1ccccc1,-1,-1,6%,-1,-7%[15.4 µM],-2.6
COc1ccc(NC(=O)CC#N)cc1OC,-16,1,16%,7,-1%,-0.4
CC(C)(NO)/C(=N/O)c1cccs1,5,11,-6%,1,0%,5.6
COc1ccc(-n2nc(C(=O)NCC(=O)NCCN(C)C)c3ccccc3c2=O)cc1,-10,-7,5%,-1,17%,-6.1
Cc1ccc(CNC(=O)[C@H]2O[C@@H](n3cnc4c(N)ncnc43)[C@H](O)[C@@H]2O)o1,-2,0,x,0,x,-1.8
CCOC(=O)N1CCN(CC(O)COc2ccc(CC)cc2)CC1 (stereo not drawn),-9,4,8%,8,-30%,4.1
CC(=O)c1cccc(N(C(=O)CNC(=O)c2ccco2)C(C(=O)NCC2CCCO2)c2ccccc2)c1 (stereo not drawn),1,6,-15%,17,26%[15.4 µM],0.8

# High-throughput results as filed in PubChem.

# Outcome played no part in choosing rows. Share with any hit: about 1.4%.
